# Bioassay records deposited in PubChem BioAssay by Vanderbilt University.
# GIRK2 activ: activators of human GIRK2 potassium channels; 63,000 tested, 0.05% active; HEK293-GIRK2 thallium flux, Thallos fluorescence; P48051; calls only for hits at 25 µM;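 active means among the strongest 0.2% of first-round signals and kept after retests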;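 further: first round at about 10 µM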
# Target sequence (P48051 whole entry, looked up): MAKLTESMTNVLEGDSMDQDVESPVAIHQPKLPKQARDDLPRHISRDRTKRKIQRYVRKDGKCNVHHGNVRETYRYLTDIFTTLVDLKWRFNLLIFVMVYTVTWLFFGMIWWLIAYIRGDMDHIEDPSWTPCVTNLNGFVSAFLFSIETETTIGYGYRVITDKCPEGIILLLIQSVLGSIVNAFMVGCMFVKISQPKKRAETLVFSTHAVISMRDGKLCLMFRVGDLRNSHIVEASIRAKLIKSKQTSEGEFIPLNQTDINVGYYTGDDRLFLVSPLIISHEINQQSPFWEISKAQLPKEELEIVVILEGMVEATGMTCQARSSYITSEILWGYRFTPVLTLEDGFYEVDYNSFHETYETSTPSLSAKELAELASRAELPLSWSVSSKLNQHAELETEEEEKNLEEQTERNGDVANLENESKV
# Calls only; i = inactive.
SMILES,GIRK2 activ
Cc1c(CNC(=O)C2CCCO2)sc2nc(-c3ccc(F)cc3)cn12 (stereo not given),i
CCCCc1ccc(-n2nnc(C(=O)Nc3ccccc3OC)c2C)cc1,i
NC(=O)Cn1nc(-c2ccccc2)c2sc(N3CCCCC3)nc2c1=O,i
O=C(NC1CCN(Cc2ccccc2)CC1)c1ccc(Cn2c(=O)[nH]c3ccccc3c2=O)cc1,i
CCCC(=O)N1CCN(c2cc(-n3nc(C)cc3C)nc(C)n2)CC1,i
CNc1ccccc1C(=O)N1CCN(c2ccc3nnc(-c4ccco4)n3n2)CC1,i
COc1ccccc1N1CCN(C(=O)CCc2csc(NC(=O)c3cccs3)n2)CC1,i
O=C(c1nnn(-c2ccccc2F)c1-c1ccccn1)N1CCc2ccccc21,i
O=C(Cc1ccc(NC(=O)c2ccncc2)cc1)NCc1cccs1,i
CN1CCN(c2ncc(NC(=O)c3ccc(Cl)cc3Cl)cn2)CC1,i
Cc1nn(C)c(C)c1S(=O)(=O)NCCn1ccc(C(F)(F)F)n1,i
COc1ccc(Cl)cc1NC(=O)CSc1nnc(N2CCN(C)CC2)s1,i
O=C(NCCOc1ccc2c(c1)OCO2)c1ccccc1Cl,i
CN(C)c1cccc(C(=O)NC2CCCC(OC(=O)Nc3ccc(F)cc3)C2)c1 (stereo not given),i
COc1ccc2sc(OC3CCN(C(=O)c4ccc(Br)o4)CC3)nc2c1,i

# The final 4 compounds of the part before are carried over, then new ones follow.
SMILES,GIRK2 activ
COc1ccc(Cl)cc1NC(=O)CSc1nnc(N2CCN(C)CC2)s1,i
O=C(NCCOc1ccc2c(c1)OCO2)c1ccccc1Cl,i
CN(C)c1cccc(C(=O)NC2CCCC(OC(=O)Nc3ccc(F)cc3)C2)c1 (stereo not given),i
COc1ccc2sc(OC3CCN(C(=O)c4ccc(Br)o4)CC3)nc2c1,i
COCCN1CCC(CNC(=O)Nc2ccccc2C(F)(F)F)CC1,i
Cc1ccc(S(=O)(=O)c2cnc(N3CCC4(CC3)OCCO4)nc2N)cc1,i
COc1ccccc1-n1nnc(C(=O)Nc2ccccc2Cl)c1C,i
COc1ccc(-c2c(NC(=O)c3ccco3)oc3c(C)cccc3c2=O)cc1OC,i
O=C(NCc1ccccc1)N1CCOC(c2ccccc2)C1 (stereo not given),i
CC(=O)Nc1ccc(S(=O)(=O)N2C3CCC2COC3)cc1,i
CCOc1ccc(N(C)S(=O)(=O)c2ccsc2C(=O)NCc2ccc(OC)cc2)cc1,i
COc1cc(OC)cc(-c2noc(-c3sccc3S(=O)(=O)N(C)c3ccccc3)n2)c1,i
O=C(c1ccco1)N1CCN(c2nc3c(-c4ccc(Cl)cc4)csc3c(=O)[nH]2)CC1,i
CCCN(C)c1nccn2c(=O)n(CC(=O)Nc3cccc(Br)c3)nc12,i
COc1ccc(-c2cc(=O)[nH]c(SCc3nc(-c4ccc(OC)c(OC)c4)oc3C)n2)cc1,i
CN(CC(=O)N1CCc2ccccc2C1)c1nc2c(Cl)cccc2s1,i
N#Cc1cccc(-c2nc(C3CC(=O)N(Cc4cccs4)C3)no2)c1 (stereo not given),i
COc1ccc(NC(=O)CN2CCc3[nH]c4ccccc4c(=O)c3C2)c(OC)c1,i
C=CCN1CN(S(=O)(=O)c2ccc(OC)cc2)c2nc3ccccc3nc21,i
CCc1c(C)nc(-n2nc(C3CC3)cc2NC(=O)c2ccc(-c3ccccc3)cc2)[nH]c1=O,i
O=C(CNC(=O)c1ccccc1)NCc1cnn2ccccc12,i
CC(=O)NS(=O)(=O)c1ccc(NC(=O)c2ccc(-n3ccnc3C)nn2)cc1,i
Cc1[nH]c(=O)[nH]c(=O)c1CCc1nnc(SCC(N)=O)o1,i
CCOC(CNS(=O)(=O)CCNC(=O)c1ccc2c(c1)OCO2)OCC,i
Cc1ccc(Cl)c2sc(NC(=O)c3cc(-c4ccco4)on3)nc12,i
Cc1nc(NCCNC(=O)C(c2ccccc2)c2ccccc2)cc(Nc2ccccn2)n1,i
Cc1n[nH]c(C)c1S(=O)(=O)Nc1ccc(CC(=O)NCc2cccs2)cc1,i
O=c1c(=O)n(-c2cccc(Cl)c2)ccn1Cc1ccccc1,i
COC(=O)c1ccccc1NC(=O)c1ccc(-n2ccnc2)nn1,i
Cn1nc(N2CCC(C(=O)NCc3cccs3)CC2)ccc1=O,i
COCCN(Cc1ccoc1)C(=O)CSc1ccc(F)cc1,i
Nc1nc(SCC(=O)NCc2cccs2)ncc1S(=O)(=O)c1cccs1,i
COc1ccc(OC)c2sc(NC(=O)c3ccnn3C)nc12,i
COc1ccc(-c2nnc(SCc3nc(-c4ccccc4)oc3C)n2N)cc1,i

# An excerpt from above in order of length of the SMILES, descending:
SMILES,GIRK2 activ
CCOc1ccc(N(C)S(=O)(=O)c2ccsc2C(=O)NCc2ccc(OC)cc2)cc1,i
CNc1ccccc1C(=O)N1CCN(c2ccc3nnc(-c4ccco4)n3n2)CC1,i
COc1ccc2sc(OC3CCN(C(=O)c4ccc(Br)o4)CC3)nc2c1,i
CN(CC(=O)N1CCc2ccccc2C1)c1nc2c(Cl)cccc2s1,i

# (next part)
SMILES,GIRK2 activ
CCCn1c(NCCO)nc2c1c(=O)[nH]c(=O)n2C,i
COCCNC(=O)Cc1ccc(NC(=O)c2nc3ccccc3s2)cc1,i
O=C(NCc1nc(-c2ccccc2)no1)C1(c2cccs2)CCCC1,i
Cc1nnc(NC(=O)c2nnn(-c3nc(C)c(C)s3)c2C)s1,i
CCCCCC(=O)CC[C@H]1C(=O)C[C@H](O)[C@@H]1C/C=C\CCCC(=O)O,i
CCCCn1c(SCC(=O)Nc2ccc(F)c(F)c2)nc2c(sc3ncccc32)c1=O,i
Cc1cc(OC(C)C(=O)NC(C)(C)C)cc(C)c1Cl (stereo not given),i
Cc1nccn1-c1cc(NCCNC(=O)c2cc3ccccc3oc2=O)ncn1,i
O=C(NC1CC(O)C(CO)C1)c1ccc(OC(F)(F)F)cc1 (stereo not given),i
CCN1C(SCC(=O)Nc2ccc(Cl)cc2F)=NS(=O)(=O)c2ccccc21,i
NC(=O)c1ccc(NC(=O)CCc2csc(NC(=O)c3ccc(=O)[nH]c3)n2)cc1,i
O=C(CSc1nc(CC(=O)Nc2cccc3nsnc23)cs1)Nc1ccc(F)cc1,i
Cn1ccnc1SCC1CCN(S(=O)(=O)c2ccc3c(c2)CCCC3)CC1,i
O=C(Nc1ccccc1Cl)c1ccc(S(=O)(=O)Nc2cccnc2)o1,i
COCCn1c(SCc2nc(-c3ccccn3)no2)nc2ccsc2c1=O,i
CSc1ccccc1C(=O)N1CC(c2nc(-c3ccco3)no2)C1,i
COCCn1c(SCc2nc(-c3ccc(Cl)cc3)oc2C)nc2ccccc2c1=O,i
COCCN(Cc1ccsc1)S(=O)(=O)Cc1cccc(C)c1,i
CC(=O)NC(=S)N1CCNC(=O)C1CC(=O)OCCOc1ccccc1 (stereo not given),i
Cc1ccc(-c2noc(Cn3cnc4c(cnn4-c4ccc(Br)cc4)c3=O)n2)cc1C,i
Cc1ccc(Cn2c(=O)c3c(nc(SCC(=O)NN)n3C)n(C)c2=O)cc1,i
CC(C)c1ccc(N2CC(c3nc(-c4ccc5c(c4)OCO5)no3)CC2=O)cc1 (stereo not given),i
Cc1ccc(N2CN(CC(=O)Nc3ccccc3C)S(=O)(=O)c3cccnc32)cc1,i
CC(C)C(=O)N1N=C(c2ccccc2)CC1c1cccc([N+](=O)[O-])c1 (stereo not given),i
COc1ccc(-c2coc3cc(O)ccc3c2=O)cc1OC,i
CCCS(=O)(=O)N1CCc2ccc(NC(=O)c3nc4ccccc4s3)cc2C1,i
O=C(CSc1ncc(CO)n1Cc1ccc(F)cc1)Nc1cccc2ccccc12,i
CC(C)c1nccn1CC1CCN(C(=O)CN2C(=O)c3ccccc3C2=O)CC1,i
COc1ccc(C(=O)CSc2c(C(C)C)cnc3c2c(=O)n(C)c(=O)n3C)cc1,i
CCCCn1c(=O)c2c(nc3n2CC(C)CN3c2ccccc2OC)n(C)c1=O (stereo not given),i
O=S(=O)(c1ccccc1)N1CCC(c2nc(-c3cccs3)no2)CC1,i
COc1nn(C)cc1C(=O)Nc1nnc(SCC(=O)Nc2ccc(C(N)=O)cc2)s1,i
CSc1ccc(CNC(=O)C2CCN(c3cc(Oc4ccccc4)ncn3)CC2)cc1,i
CC(C)(C)C(O)CCNS(=O)(=O)c1cc(F)ccc1F (stereo not given),i
CSc1ccccc1CN1CCC(CNC(=O)C(=O)NCc2ccc(F)cc2)CC1,i
CC(C)N(CC#CCNC(=O)c1cc2ccccc2o1)C(C)C,i
COC(=O)c1ccc(NC(=O)Cn2nc3c(Oc4cccc(OC)c4)nccn3c2=O)cc1,i
COc1ccc(NC(=O)Cn2c(N3CCOCC3)nc(C)cc2=O)cc1Cl,i
CC(C)(Oc1ccc(Cl)cc1)C(=O)N1CC(c2nc3ccccc3[nH]2)C1,i
Cc1cc(C)n(-c2ccc(=O)n(CCNC(=O)c3cccc(-n4cnnn4)c3)n2)n1,i
Cc1ccccc1/C=C1\Oc2c(ccc3c2CN(C2CCS(=O)(=O)C2)CO3)C1=O (stereo not given),i
O=C(CCCS(=O)(=O)Cc1ccccc1)Nc1nc2ccc(Cl)cc2s1,i
CC(=O)c1cccc(NC(=O)Cn2nc3c(N4CCN(c5ccccc5C)CC4)nccn3c2=O)c1,i
COC(=O)C(C)Oc1ccc2c(=O)c(-c3ccccc3OC)c(C(F)(F)F)oc2c1 (stereo not given),i
Cc1ccc2oc3c(c(=O)c2c1)C(c1ccc([N+](=O)[O-])cc1)N(c1nccs1)C3=O (stereo not given),i
CCn1c(C)c(C(C)=O)c2cc(OCC(O)CN3CCCCCC3)ccc21 (stereo not given),i
O=C(N1CC(c2nc(-c3ccncc3)no2)C1)C1(c2ccccc2)CCOCC1,i
O=C1COc2ccccc2N1Cc1nc(-c2ccc3c(c2)OCO3)no1,i
Cc1ccc(-c2cc3c(=O)n(CC(=O)Nc4ccc(F)cc4F)ccn3n2)cc1,i
Cc1cccc(-n2c(C)cn3c4c(=O)n(CCN5CCOCC5)c(=O)n(C)c4nc23)c1C,i
CC(C)C(=O)Nc1ccc(C(=O)NCCNS(C)(=O)=O)cc1,i
CC(C)Oc1ccc(-c2noc(Cn3nc(-c4ccc5c(c4)OCO5)ccc3=O)n2)cc1,i
COc1ccccc1C(=O)Nc1c(C)nc2sc(C)c(C)n2c1=O,i
COc1ccc(CNC(=O)Nc2ccc3nc(SC)sc3c2)cc1OC,i
Cn1nc(-c2ccc(F)cc2)cc1C(=O)NCC(c1ccco1)N1CCOCC1 (stereo not given),i
CCOc1ccc2nc(NC(=O)Cc3c(C)nc(SC(C)c4ccccc4)[nH]c3=O)sc2c1 (stereo not given),i
CCOC(=O)N1CCN(C(=O)c2ccc(Cn3c(=S)[nH]c4cc5c(cc4c3=O)OCO5)cc2)CC1,i
O=C(C(c1ccccc1)c1ccccc1)N1CCC2(CC1)OCCCO2,i
CCN1CCN(C(=O)N[C@@H](C(=O)N[C@@H]2C(=O)N3[C@@H]2SC(C)(C)[C@@H]3C(=O)O)c2ccccc2)C(=O)C1=O,i
CN(Cc1ccccc1)C(=O)c1snc2c(=O)n(Cc3ccccc3)c(=O)[nH]c12,i

# Fetched one by one from the entries so far (six):
SMILES,GIRK2 activ
Cn1nc(-c2ccc(F)cc2)cc1C(=O)NCC(c1ccco1)N1CCOCC1 (stereo not given),i
Cc1cccc(-n2c(C)cn3c4c(=O)n(CCN5CCOCC5)c(=O)n(C)c4nc23)c1C,i
CN(Cc1ccccc1)C(=O)c1snc2c(=O)n(Cc3ccccc3)c(=O)[nH]c12,i
CCn1c(C)c(C(C)=O)c2cc(OCC(O)CN3CCCCCC3)ccc21 (stereo not given),i
COc1ccc(CNC(=O)Nc2ccc3nc(SC)sc3c2)cc1OC,i
O=C1COc2ccccc2N1Cc1nc(-c2ccc3c(c2)OCO3)no1,i

# More entries follow:
SMILES,GIRK2 activ
Cc1cc(C)cc(NC(=O)CSc2nnc(N3CCN(C)CC3)s2)c1,i
C(=C\c1ccccc1)/CN1CCC(Cn2cnc3ccccc32)CC1,i
COc1cccc2sc(N3CC(C(=O)Nc4nc(C)c(C)s4)C3)nc12,i
O=C(c1ccco1)N1CCN(c2cc(-c3ccccc3)ncn2)CC1,i
Cc1cc(N2C(=O)c3oc4ccccc4c(=O)c3C2c2cccc([N+](=O)[O-])c2)no1 (stereo not given),i
COc1ccc(S(=O)(=O)N2CCCCC2CC(=O)NCCc2ccc(Cl)cc2)cc1 (stereo not given),i
O=C(c1cnccn1)N1CCC(Oc2nc3ccccc3s2)CC1,i
COC(=O)c1ccc(C(=O)NCC2CCS(=O)(=O)C2)cc1 (stereo not given),i
Cc1cn2c3c(=O)n(CCc4ccccc4)c(=O)n(C)c3nc2n1-c1ccc(S(N)(=O)=O)cc1,i
Cc1noc(CNC(=O)NCCCc2ccccc2)n1,i
CCCc1cnc2c(c1SCc1cc(OC)cc(OC)c1)c(=O)n(C)c(=O)n2C,i
C=CCSc1nnc(-c2ccccc2NC(=O)/C=C/c2cc(OC)c(OC)c(OC)c2)o1,i
O=C(NCC1CCCO1)c1ccc(Cl)c(S(=O)(=O)N2CCOCC2)c1 (stereo not given),i
CSc1nc(C(C)(C)C)cc(C(F)(F)F)c1C#N,i
COc1cccc(OCC(=O)NC2CC(O)C(CO)C2)c1 (stereo not given),i
C=CCn1c(N2CCN(c3ccc(OC)cc3)CC2)nc2c1c(=O)[nH]c(=O)n2C,i
CC(=O)Nc1ccc(SCCCC(=O)NCC2CCCO2)nn1 (stereo not given),i
CCSc1ccccc1C(=O)N(CCOC)Cc1ccoc1,i
COc1ccc(NC(=O)CN2CCC(c3nc(-c4cccs4)no3)CC2)cc1OC,i
COc1ccc(S(=O)(=O)c2cnc(SCC(=O)Nc3cc(OC)cc(OC)c3)[nH]c2=O)cc1,i
CCCOc1ccc(S(=O)(=O)N2CCCCCC2)cc1C,i
O=C(Nc1ccc([N+](=O)[O-])cc1)c1cccc(S(=O)(=O)N2CCOCC2)c1,i
CCCCNC(=O)c1ccc(-n2ccnc2SCC(=O)Nc2cccc(C(C)=O)c2)cc1,i
COc1ccc(CC(C)(O)CNC(=O)C2(c3ccc(Cl)cc3)CCCC2)cc1 (stereo not given),i

# A portion of the library; rates above refer to the full screens.
